High-throughput results as filed in PubChem.
HSV augment = enhancers of HSV replication in host cells, fold increase, host cell viability | HSV replication augmentation in cells | maximum fold increase | actives 0.005% (n = 220,000) | AID 1956, 2009;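 active means peak rise of 1.5-fold or more in the series; tested in PC3 cells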;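 further: first round at 10 µM; read as green reporter fluorescence; hits show the peak of a series up to 25 µM; 1 = signal of infected wells without compound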
GALR2 ag = GALR2 receptor agonists, primary screen, cell-based | Galanin receptor type 2 (Homo sapiens), O43603 | GALR2-expressing cells, agonist activation read-out | activation, %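 (tested at 5 µM)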 | actives 0.48% (n = 140,000);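 active means above mean plus 3 SD of all compounds, about 5% in these data, not always enough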;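 further: 0% = vehicle buffer wells and 100% = reference agonist at full effect; tested in CHO reporter cells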
Target sequence (O43603 whole entry, looked up): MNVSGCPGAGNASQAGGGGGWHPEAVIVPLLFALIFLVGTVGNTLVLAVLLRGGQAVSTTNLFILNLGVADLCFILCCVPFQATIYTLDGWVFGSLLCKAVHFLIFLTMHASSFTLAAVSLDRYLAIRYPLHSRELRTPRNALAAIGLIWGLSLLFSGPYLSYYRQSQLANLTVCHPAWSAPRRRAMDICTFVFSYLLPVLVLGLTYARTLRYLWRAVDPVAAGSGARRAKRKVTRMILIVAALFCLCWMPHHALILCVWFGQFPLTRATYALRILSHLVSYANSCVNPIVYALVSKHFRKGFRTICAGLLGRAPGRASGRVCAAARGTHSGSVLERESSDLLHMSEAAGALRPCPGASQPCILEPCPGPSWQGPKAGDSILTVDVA
PKD1 kinase inh = inhibitors of human PKD1 kinase, biochemical, fluorescence polarization | Serine/threonine-protein kinase D1 (Homo sapiens), Q15139 | PKD1 kinase fluorescence polarization assay | inhibition, %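 (about 10 µM by stock and volumes)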 | actives 0.056% (n = 200,000) | AID 797, 2007;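 active means inhibition of 50% or more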;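 further: controls were vehicle for no effect and a reference inhibitor for full effect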
RGS16-Gao HTS = modulators of RGS16 binding to Galphao, primary screen, biochemical, human proteins, multiplexed bead flow cytometry | Regulator of G-protein signaling 16 (Homo sapiens) + Guanine nucleotide-binding protein … | actives 0.38% (n = 220,000) | bead-based flow cytometry RGS16-Galphao binding, fluorescence; actives lie on both sides | AID 1441, 2008 | binding response (% of control), % at 10 µM;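 active means below 25% or above 175%, edge rows of some plates excepted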;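 further: Galphao activated by GDP with aluminum fluoride before binding; 100% = wells without compound and 0% = beads without RGS; some results beyond the cut were filed as inactive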
Target sequence (O15492 whole entry, looked up): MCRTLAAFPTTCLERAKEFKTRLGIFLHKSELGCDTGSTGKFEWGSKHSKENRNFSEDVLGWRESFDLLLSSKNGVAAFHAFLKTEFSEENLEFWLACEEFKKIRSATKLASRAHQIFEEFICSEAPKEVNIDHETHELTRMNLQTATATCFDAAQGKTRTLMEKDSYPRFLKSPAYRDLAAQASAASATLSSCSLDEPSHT
Target sequence (P09471 whole entry, looked up): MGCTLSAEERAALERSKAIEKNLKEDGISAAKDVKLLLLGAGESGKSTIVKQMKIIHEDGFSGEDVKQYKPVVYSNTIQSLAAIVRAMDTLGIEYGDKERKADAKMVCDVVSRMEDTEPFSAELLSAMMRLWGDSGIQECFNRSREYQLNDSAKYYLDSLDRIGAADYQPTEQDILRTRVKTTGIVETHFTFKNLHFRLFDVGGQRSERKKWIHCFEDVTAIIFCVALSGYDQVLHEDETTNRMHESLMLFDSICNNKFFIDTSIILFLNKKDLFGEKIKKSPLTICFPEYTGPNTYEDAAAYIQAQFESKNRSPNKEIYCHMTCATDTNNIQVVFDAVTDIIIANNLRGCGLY
Insulin prom inh = inhibitors of insulin promoter-driven GFP, primary screen, imaging, TRM-6 cells (human fetal islet line), eGFP reporter, cell count | reporter expression induced with tamoxifen | inhibition, % at 2 µM | actives 0.9% (n = 130,000);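 active means inhibition above the mean plus 3 SD, with well images judged a real hit on visual review, cut at about 60% in these data, passing the limit was not always enough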
Insulin prom inh cell count = second read-out of Insulin prom inh, no call of its own (marks repeat the call); normalized cell count, %; measured here: cell count, toxicity; reference of the scale not given here;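 cells exposed to compound for 48 h; stained nuclei by imaging scaled within each plate; lower means fewer cells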
HSV augment primary fold = further read-out of HSV augment, marked with its call; fold increase; compound at 10 µM; measured here: primary screen fold increase 10 uM; tested in PC3 cells;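 GFP signal in the first replicate; 1 = infected wells without compound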
* hit, by the source's call; i = inactive; · = no result given.

SMILES	HSV augment	HSV augment primary fold	GALR2 ag	PKD1 kinase inh	RGS16-Gao HTS	Insulin prom inh	Insulin prom inh cell count
CCOC(=O)c1ccc(NC(=O)Nc2cc(C)cc(C)n2)cc1	i	1	·	10	102	-5	108
CCOC(=O)N1CCN(S(=O)(=O)c2ccc3c(c2)CCN3C(=O)CC)CC1	i	1	-1.0	3	91	-14	102
Cc1ccc(Nc2nc(C(=O)N3CCC(C(=O)NC(C)C)CC3)cs2)cc1	i	0.99	·	·	107	·	·
CC1CCN(CCCn2c(=S)[nH]c3c(sc4ccc([N+](=O)[O-])cc43)c2=O)CC1	i	1	·	-4	102	·	·
Cc1cc(NC(=O)CN2C(=O)NC3(CCCCC3)C2=O)no1	i	1	-3.4	0	94	30	107
O=C(Nc1ccc(Cl)cn1)c1ccc2c(c1)OCCO2	i	1	·	-1	43	·	·
CCn1cc(C(=O)NCc2cccs2)c(=O)c2cc(S(=O)(=O)N3CCOCC3)ccc21	i	1.1	·	·	108	·	·
CCn1c(SCC(N)=O)nnc1-c1ccc(OC)c(OC)c1	i	0.96	-1.7	0	98	-9	96
CCC(CC)C(=O)Nc1cccc(C(=O)NCCc2ccc(S(N)(=O)=O)cc2)c1	i	1	0.2	-2	101	-31	90
CCOC(=O)CN1C(=O)C(O)=C(C(C)=O)C1c1ccc(F)cc1 (stereo unspecified)	i	0.99	-2.0	-14	100	15	113
COc1ccc(/C=C\c2nc(=O)c3ccccc3o2)cc1	i	0.95	·	-7	94	19	148
CC1CCCN(CC(O)COCC2COc3ccccc3O2)C1 (stereo unspecified)	i	0.95	-1.2	-6	102	16	100
COc1cc(CNC23CC4CC(CC(C4)C2)C3)ccc1OCc1ccccc1	i	0.68	·	2	101	-19	113
COc1ccc(CC(=O)NC(CC(=O)O)c2cccc([N+](=O)[O-])c2)cc1 (stereo unspecified)	i	0.96	·	-2	113	-36	93
CC1=NN(C(=O)c2csc(C(C)C)c2)C(O)(C(F)(F)F)C1 (stereo unspecified)	i	0.83	-0.8	-10	102	-17	109
Cc1ccc(CN2CCN(/N=C/c3ccccc3)CC2)cc1	i	0.97	·	·	101	·	·
CCCCC(=O)Nc1cc(OC)c(NC(=S)NC)cc1OC	i	0.9	·	6	99	-17	88
CCOC(=O)Cn1c(CN2CC(C)OC(C)C2)nc2c1c(=O)n(C)c(=O)n2C (stereo unspecified)	i	0.85	-0.6	-1	86	43	116
COc1ccc(-c2cc(C(=O)OCC(=O)c3ccc(C)c([N+](=O)[O-])c3)c3ccccc3n2)cc1	i	1	-0.2	2	96	7	132
N#Cc1c(-c2ccccc2)[nH]c(=O)[nH]c1=O	i	0.95	·	-6	106	-25	150
NC(=O)CC(NC(=O)Cc1ccc(Br)cc1)c1ccc(NCCc2cccc(F)c2)c([N+](=O)[O-])c1 (stereo unspecified)	i	0.83	·	·	100	·	·
N#Cc1c(-c2ccco2)nc(SCC(=O)Nc2cccc(Cl)c2)[nH]c1=O	i	1	-0.9	-5	111	·	·
CC1CCN(S(=O)(=O)N2CCC(C(=O)N3CCC(N(C)CC4CCCO4)CC3)CC2)CC1 (stereo unspecified)	i	1.1	-2.0	-7	103	·	·
COc1ccc(CNc2ccc(C)c(C)c2)cc1	i	1	·	1	104	·	·
O=S(=O)(/N=C(/c1ccc(Cl)cc1)N1CCOCC1)c1ccc(Cl)cc1	i	0.96	-2.9	-4	76	-42	87

Part of the list above, showing only RGS16-Gao HTS:
compound | RGS16-Gao HTS
Cc1ccc(Nc2nc(C(=O)N3CCC(C(=O)NC(C)C)CC3)cs2)cc1 | 107
CC1CCN(CCCn2c(=S)[nH]c3c(sc4ccc([N+](=O)[O-])cc43)c2=O)CC1 | 102

(continued)
SMILES	HSV augment	HSV augment primary fold	GALR2 ag	PKD1 kinase inh	RGS16-Gao HTS	Insulin prom inh	Insulin prom inh cell count
N#Cc1cc(-c2ccccc2)nn1-c1ccccc1	i	0.96	-3.4	1	74	-286	62
NC1=NC(=O)CC(C(=O)Nc2cccc3ccccc23)S1 (stereo unspecified)	i	0.82	·	-2	121	45	144
CCOC(=O)C1=C(N)OC(C)=C(C#N)C1c1ccco1 (stereo unspecified)	i	0.95	-1.4	-15	102	-71	175
Cc1cc(OC(C)C(N)=O)nc(-c2ccccc2)n1 (stereo unspecified)	i	1	·	-4	101	14	109
CCOC(=O)N=Nc1c2ccccc2c2nc3no[nH]c3nc12	i	0.59	·	-3	99	·	·
CCOC(=O)C1(Cc2ccccc2C)CCCN(Cc2cc(OC)c(O)c(OC)c2)C1 (stereo unspecified)	i	1	·	-1	105	-7	102
COC(=O)COc1ccc(S(=O)(=O)Nc2cc(OC)ccc2OC)cc1	i	0.69	0.5	-1	109	-4	194
CCOC(=O)/C(=N\Nc1cccc(Cl)c1)Sc1nnc(-c2ccc(OC)cc2)n1C	i	0.79	0.0	5	100	46	127
O=C(O)Cn1ccnc1	·	·	-0.1	-3	98	45	120
CC(=O)Nc1ccc2nc(NC(=O)C(Cl)(Cl)Cl)sc2c1	i	0.98	·	-4	98	·	·
CNCc1ccccc1OCC(=O)Nc1ccccc1OC	i	0.9	-0.9	-8	99	30	55
Cc1cc(Cl)cc(Br)c1OCCCN1C(=O)NC(C)(C)C1=O	i	0.89	-2.7	2	103	-54	118
CC(NC(=O)C(=O)NCC1CCCO1)c1ccccc1 (stereo unspecified)	i	1.1	·	-1	103	·	·
Cn1cccc1/C=N/NC(=O)c1cccc(OC(F)(F)C(F)F)c1	i	0.82	-1.4	3	111	·	·
Cn1c(=O)n(C)c2cc(NS(C)(=O)=O)ccc21	i	0.96	-1.9	-17	83	-93	58
O=C1/C(=C/c2ccc(F)cc2)CCC1C1CCCC1 (stereo unspecified)	i	1.1	0.3	-2	105	-442	90
CCCCCCNC(=O)Cc1nc2nc(C)cc(C)n2n1	i	0.96	-1.4	5	110	·	·
O=c1[nH]c(Cn2nnc(-c3ccccc3)n2)nc2scc(-c3ccccc3)c12	i	0.86	-2.6	-1	106	-9	131
Cc1cc(C)nc(NS(=O)(=O)c2ccc(NC(=S)NC(=O)C(C)C)cc2)n1	i	1	-1.8	11	108	31	91
CC(NCc1ccccc1Cl)C(=O)Nc1ccc(S(=O)(=O)N2CCCC2)cc1 (stereo unspecified)	i	0.94	-1.2	0	106	0	110
Cc1ccc(OCCNC(=O)c2cc(=O)[nH]c3ccccc23)cc1	i	0.97	·	3	95	-79	134
CN1C2C=C3C(C#N)=C(N)C(C#N)(C#N)[C@@H](c4cccc(F)c4)[C@@H]3C1CC2 (stereo partly specified)	i	0.94	-0.7	-10	100	14	33
C#CCNC(=O)C1=C[C@H](C2CCCCC2)C[C@H](OCc2ccc(CO)cc2)O1	i	1.1	·	-2	99	·	·
CN=c1scc(-c2ccccc2Br)n1/N=C/c1ccc[nH]1	i	1.2	·	-1	98	·	·
C=CCn1c(SCc2c(C)noc2C)nnc1C1COc2ccccc2O1 (stereo unspecified)	i	0.85	-2.0	5	99	·	·
SMILES	HSV augment	HSV augment primary fold	GALR2 ag	PKD1 kinase inh	RGS16-Gao HTS	Insulin prom inh	Insulin prom inh cell count
Cc1cc2nc(C3CCCN(C(=O)NCc4ccccc4)C3)[nH]c2cc1C (stereo unspecified)	i	0.99	-0.6	-16	105	15	157
Cc1ccc(C)c(C(=O)CSc2n[nH]c(C(C)C)n2)c1	i	1.1	-4.0	-7	105	·	·
CCOc1ccc(C(=O)CC(NCc2cccs2)C(=O)O)cc1 (stereo unspecified)	i	1.2	·	11	99	-100	51
CCOC(=O)Cc1csc(Nc2ccc(Cl)cc2)n1	i	1	-1.2	7	104	50	81
Cc1ccc(C)c(NC(=S)NCC(c2ccccc2)N(C)C)c1 (stereo unspecified)	i	0.93	·	-9	106	·	·
COc1ccc(CC(=O)n2nc(-c3ccccc3)nc2NCc2ccco2)cc1	·	·	-2.0	-3	97	i	43
O=C(c1ccco1)N1CCN(CCCCN2C(=O)c3ccccc3C2=O)CC1	i	1	-1.1	-3	101	·	·
O=C1C2C3C=CC(C4CC34)C2C(=O)N1Cc1ccccc1 (stereo unspecified)	i	1	·	-1	111	·	·
COCC(=O)N(C)c1nnc(-c2cnccn2)s1	i	0.85	-0.8	-4	105	7	109
CCn1c(CC(=O)Nc2ccc(C)cc2)nnc1SCC(=O)N1CCN(c2ccccc2)CC1	i	0.81	-2.7	-16	109	-188	90
Cn1c(=O)n(Cc2ccc(Cl)cc2)c2ccccc21	i	0.64	-2.1	-2	99	·	·
Cc1cc(C)c(NC(=O)c2cn3c4c(c(N5CCN(C)CC5)c(F)cc4c2=O)OCC3C)c(C)c1 (stereo unspecified)	i	0.97	-0.4	-7	114	-150	52
COc1cccc(C(=O)NC(=O)Nc2cc(C)[nH]n2)c1	i	0.91	·	·	102	·	·
c1ccc2oc(NC3=NCN(C4CCCCC4)CN3)nc2c1	i	0.96	·	·	96	·	·
O=C(CN(Cc1ccco1)C(=O)Cn1nnc(-c2ccc(F)cc2)n1)NC1CCCC1	·	·	-2.0	5	106	·	·
Cc1cc(C)c2c(N)c(C(=O)N3CCc4ccccc4C3)sc2n1	i	0.9	·	3	102	·	·
Nc1nc(NCC2CCCO2)nc(Nc2ccccc2F)c1[N+](=O)[O-] (stereo unspecified)	i	0.89	·	·	129	·	·
CC1CCc2nc(NC(=O)CN3CCN(c4ccccc4)CC3)sc2C1 (stereo unspecified)	i	1	-3.4	3	105	-12	118
Cc1ccc2[nH]c(=O)c(CN(Cc3ccco3)C(=O)N3CCOCC3)cc2c1	i	1	·	-6	108	·	·
CC(C)c1ccc(/C=C(/C#N)c2nnc(NC(=O)c3ccccc3)s2)cc1	i	1.1	0.0	2	98	-13	79
COc1ccc(N2C(=O)CC(NNc3nc4ccccc4s3)C2=O)cc1 (stereo unspecified)	i	0.94	·	·	94	·	·
O=C(Nc1ccc(F)c([N+](=O)[O-])c1)C(=O)c1c(O)[nH]c2ccccc12	i	0.92	·	-5	101	-45	163
S=C(Nc1ccc(Br)cc1)N1CCn2cccc2C1c1cccnc1 (stereo unspecified)	i	0.85	·	-1	95	-33	102
FC(F)(F)c1ccccc1-n1c(-c2cnccn2)n[nH]c1=S	i	0.93	·	·	102	·	·
N/C(=N\OC(=O)CCC1CCCCC1)c1ccccn1	i	0.91	-1.4	-13	100	3	80
CCOC(=O)c1cnc2c(-c3ccc(F)cc3)cnn2c1C(F)(F)F	i	0.82	·	-6	97	-5	156
COc1ccc(CCNC(=O)C2CCN(Cc3nc(-c4ccccc4C)oc3C)CC2)cc1OC	i	0.94	-0.2	5	110	·	·

Entries shown so far that have an NH in an aromatic ring, in the order listed:
SMILES	HSV augment	HSV augment primary fold	GALR2 ag	PKD1 kinase inh	RGS16-Gao HTS	Insulin prom inh	Insulin prom inh cell count
CC1CCN(CCCn2c(=S)[nH]c3c(sc4ccc([N+](=O)[O-])cc43)c2=O)CC1	i	1	·	-4	102	·	·
N#Cc1c(-c2ccccc2)[nH]c(=O)[nH]c1=O	i	0.95	·	-6	106	-25	150
N#Cc1c(-c2ccco2)nc(SCC(=O)Nc2cccc(Cl)c2)[nH]c1=O	i	1	-0.9	-5	111	·	·
CCOC(=O)N=Nc1c2ccccc2c2nc3no[nH]c3nc12	i	0.59	·	-3	99	·	·
O=c1[nH]c(Cn2nnc(-c3ccccc3)n2)nc2scc(-c3ccccc3)c12	i	0.86	-2.6	-1	106	-9	131
Cc1ccc(OCCNC(=O)c2cc(=O)[nH]c3ccccc23)cc1	i	0.97	·	3	95	-79	134
CN=c1scc(-c2ccccc2Br)n1/N=C/c1ccc[nH]1	i	1.2	·	-1	98	·	·
Cc1cc2nc(C3CCCN(C(=O)NCc4ccccc4)C3)[nH]c2cc1C (stereo unspecified)	i	0.99	-0.6	-16	105	15	157
Cc1ccc(C)c(C(=O)CSc2n[nH]c(C(C)C)n2)c1	i	1.1	-4.0	-7	105	·	·
COc1cccc(C(=O)NC(=O)Nc2cc(C)[nH]n2)c1	i	0.91	·	·	102	·	·
Cc1ccc2[nH]c(=O)c(CN(Cc3ccco3)C(=O)N3CCOCC3)cc2c1	i	1	·	-6	108	·	·
O=C(Nc1ccc(F)c([N+](=O)[O-])c1)C(=O)c1c(O)[nH]c2ccccc12	i	0.92	·	-5	101	-45	163
FC(F)(F)c1ccccc1-n1c(-c2cnccn2)n[nH]c1=S	i	0.93	·	·	102	·	·
